Assay outcomes from PubChem BioAssay.
Mtb H37Rv: M. tuberculosis H37Rv growth inhibitors, H37Rv strain (AID 1626); M. tuberculosis H37Rv growth inhibition; higher % means a stronger effect; one-dose inhibition, % at 10 µM; IC50 in µM for titrated hits; actives 0.95% (n = 220,000);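 active = confirmed in a dose series; inconclusive = inhibition above 80% but not taken into the dose series; inactive = below 80% or under 30% at every dose of the series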;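 note: bacteria incubated seven days before Alamar blue readout; 0% = bacteria only wells and 100% = bacteria with antibiotic wells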
YopH PTP inh: inhibitors of Yersinia enterocolitica YopH tyrosine phosphatase. actives 0.16% (n = 140,000). AID 898. inhibition, %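 (about 10 µM by stock and volumes)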. fluorescence Ex485/Em525;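 active = inhibition of 50% or more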;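 note: controls were vehicle for no effect and minimum signal wells for full effect; inactives centre near -20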
Arbovirus anti: arbovirus infection inhibition. arbovirus infection cell-based antiviral screen. inhibition, % at 10 µM. actives 0.37% (n = 200,000). AID 1251;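 active = inhibition from about 30%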;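 note: bluetongue infection of BSR cells; cell survival read as ATP light after 72 h; 0% = infected wells without compound and 100% = uninfected wells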
RecA splice inh: inhibitors of M. tuberculosis RecA intein splicing. cell-free RecA intein splicing, fluorescence. inhibition, %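 (about 9 µM by stock and volumes)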. actives 0.75% (n = 290,000). P9WHJ3; in the data active = inhibition above about 30%; inconclusive = no clear call, values can overlap the other calls;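 note: 0% = vehicle wells and 100% = reference inhibitor control wells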
Target sequence (P9WHJ3 whole entry, looked up, canonical isoform): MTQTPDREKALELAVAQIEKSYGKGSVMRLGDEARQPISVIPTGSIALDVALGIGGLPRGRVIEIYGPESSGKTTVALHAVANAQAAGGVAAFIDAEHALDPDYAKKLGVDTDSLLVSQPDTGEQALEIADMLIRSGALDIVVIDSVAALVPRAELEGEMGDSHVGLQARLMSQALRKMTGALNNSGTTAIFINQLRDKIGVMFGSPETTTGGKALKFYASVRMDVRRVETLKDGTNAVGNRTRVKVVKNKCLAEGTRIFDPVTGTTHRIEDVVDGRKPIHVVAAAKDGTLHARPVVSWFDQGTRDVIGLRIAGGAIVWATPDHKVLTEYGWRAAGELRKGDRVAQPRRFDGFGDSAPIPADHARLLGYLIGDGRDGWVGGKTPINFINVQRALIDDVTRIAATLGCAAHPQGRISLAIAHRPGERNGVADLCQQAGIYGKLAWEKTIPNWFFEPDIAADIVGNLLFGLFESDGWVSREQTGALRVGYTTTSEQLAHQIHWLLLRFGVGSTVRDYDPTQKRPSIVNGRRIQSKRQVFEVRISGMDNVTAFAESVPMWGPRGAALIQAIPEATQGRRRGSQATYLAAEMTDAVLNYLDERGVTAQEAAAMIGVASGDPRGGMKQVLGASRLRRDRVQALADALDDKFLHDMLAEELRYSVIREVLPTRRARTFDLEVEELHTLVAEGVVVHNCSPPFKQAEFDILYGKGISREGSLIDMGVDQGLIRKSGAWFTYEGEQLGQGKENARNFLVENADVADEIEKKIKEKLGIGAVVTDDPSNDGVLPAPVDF
Mtb betalactam: beta-lactam sensitization of Mtb H37Rv | actives 0.27% (n = 330,000) | M. tuberculosis H37Rv growth with meropenem, percent inhibition; hits of this screen are not shown here | AID 434955 | inhibition, % at 25 µM;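 active = about 74% or more and at least 40 points above the plate without the antibiotic, then above 30% in a dose series; inconclusive = first-round hits that could not be retested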;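 note: growth measured after seven days incubation then overnight dye step; 0% = bacteria only wells and 100% = bacteria with antibiotic; twin plates without the antibiotic show which effects depend on it; some results filed as inactive read as strong as hits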
Arbovirus anti repeat: recorded beside Arbovirus anti, whose call it bears; inhibition, %; measured here: 10K subset replicate screen; many hits read low in the repeat;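 first of two repeat runs on a subset; 0% = infected and 100% = uninfected wells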
The depositor's hits bear a star; ? = inconclusive; · = not tested or not shown; & = joins results of further samples. These rows are one share of the data (hit frequency here may not be typical).

SMILES	Mtb H37Rv	YopH PTP inh	Arbovirus anti	RecA splice inh	Mtb betalactam	others
CC1=Nc2ccc3ccccc3c2C1(C)C	0%	·	-12	2.9	2
Cc1ccc(CNc2ccc(N3CCOCC3)c(Cl)c2)cc1	·	·	·	-3.8	-1
O=C(COc1ccc(F)cc1)Nc1nnc(-c2ccncc2)s1	-5%	-13	-12	-2.4	2
Cc1ccc(/C=N/n2c(C3CCCCC3)n[nH]c2=S)o1	8%	-9	3	0.7	3
CCC/C(=N/NC(=O)c1ccc2c(c1)OCO2)c1cccs1	75%	-34	-4	-0.1	29
CC1=C(C)[N+](=O)C2CCCCC2N1[O-] (stereo not drawn)	-14%	13	4	-1.6	-5
C[C@@H]1CCC(=O)N(CC[C@H](Sc2ccccc2)c2ccccc2)CC1	·	·	·	15	-10
O=C(Nc1ccc(NC(=O)c2sc3ccccc3c2Cl)cc1)c1ccco1	8%	-31	-37	-8.3	5
O=C(OCC(=O)N1CCOCC1)c1ccc(Br)cc1	·	·	·	1.9	7
COc1cc(C)ccc1OCc1cc(C(=O)NCCN2CCOCC2)no1	·	·	·	1.4	?
CCCNC(=O)c1ccc(Cl)cc1Cl	-15%	·	·	1.2	-5
C[C@@H]1C[C@H]2[C@@H]3CCC4=CC(=O)C=C[C@]4(C)[C@@]3(F)[C@@H](O)C[C@]2(C)[C@H]1C(=O)CO	2%	-26	14	1.2	-2
CCN(Cc1ccncc1)C(=S)NCc1ccccc1	-3%	·	5	9.7	-12
CCCCNC(=O)Nc1nnc(C(C)(C)C)s1	-5%	·	·	1.7	7
O=C(Nc1ccc(Cl)c(Cl)c1)Oc1ccc(NC(=O)c2ccco2)cc1	62%	-6	-27	4.7	98
COc1ccccc1NC(=O)CSc1nnc(NC(=O)C2CCC2)s1	·	·	·	4.4	1
Cc1nnc(SCc2ccc(Cl)cc2)nc1/C=C/N(C)C	1%	·	-9	-7.3	?
COc1ccccc1-n1ccn(CC(=O)Nc2ccc(C)cc2Cl)c(=O)c1=O	·	·	·	-0.4	-2
S=C(Nc1cccc(Cl)c1)Nc1ccc2cn[nH]c2c1	-1%	-19	12	5.9	8
Cc1cccc2c1N(C)C(=O)C2=O	2%	·	-15	-5.6	-6
CC(=NCCN1CCCCC1)c1c(O)n(Cc2ccccc2)c(=O)[nH]c1=O	-6%	-31	4	3.0	-8
FC(F)(F)c1nc(NCc2cccnc2)c2ccccc2n1	·	·	·	1.9	8
CCNc1cc2n(c(=O)n1)CCc1cc(OC)c(OC)cc1-2	-7%	-1	-4	-1.5	-1
O=C(Nc1ccc(F)cc1F)C1CCCN1S(=O)(=O)c1ccc(-c2ccc(=O)[nH]n2)s1 (stereo not drawn)	·	·	·	-3.2	-3
Clc1ccc(CNc2ccc3nnc(-c4ccccc4)n3n2)cc1	·	-34	-5	2.8	-2
CCOC(=O)N1CCN(C(=O)CCN2C(=O)/C(=C\c3ccccc3OC)SC2=S)CC1	·	·	·	1.1	?
COCCn1c(=O)c2c(nc3n2CCCN3CCc2ccccc2)n(C)c1=O	·	·	·	2.9	0
COc1cc2c(C(=O)N(C)c3cc(Cl)ccc3OC)cn(C)c(=O)c2cc1OC	·	·	·	3.8	-4
c1ccc(-c2onc3cc4c(cc23)OCCO4)cc1	0%	8	-10	-1.7	1
COCCCNC(=O)c1ccc(CNS(=O)(=O)c2ccc(NC(C)=O)cc2)cc1	·	10	9	·	0
O=C(Nc1ccccc1)c1cn2ccccc2n1	-2%	·	·	0.8	-2
Cc1ccc(C)c(NC(=S)NC(NC(=O)OCc2ccccc2)C(Cl)(Cl)Cl)c1 (stereo not drawn)	12%	-43	-4	-3.3	2
O=C(NCCN1CCOCC1)c1ccc2c(c1)N(Cc1ccc(Cl)cc1)C(=O)CS2	·	·	·	0.1	1
COC(=O)c1ccccc1N(Cc1ccccc1)S(C)(=O)=O	2%	-67	11	-0.6	-5	Arbovirus anti repeat=-2
CCOC(=O)COc1c(OC)cc(Cl)cc1C1Nc2ccccc2C(=O)N1c1ccccc1 (stereo not drawn)	-15%	-3	1	3.7	2
O=C(CCCN1C(=O)/C(=C\c2cccs2)SC1=S)Nc1ccccn1	0%	·	0	1.5	13
CCCC1=C(C(=O)OCC)C(c2cccnc2)n2nc(C)nc2N1 (stereo not drawn)	5%	·	·	-2.3	-1
Cc1c(C(=O)N2CCCCCC2)c(S(=O)(=O)Nc2cccc(F)c2)c(C)n1C	·	·	·	7.1	?
CC(=O)Oc1ccc(C(=O)Nc2cccc3c2CCCC3)cc1	·	·	·	5.2	4
CCOc1c(Br)cc(/C=C(\C#N)C(=O)NC2CC2)cc1OC	·	·	·	4.4	8
C/C(=N\NC(N)=S)c1ccc2c(c1)OCCO2	-7%	·	·	-0.9	92
O=C(CSc1nc(=O)n(CCN2CCOCC2)c2c1CCCC2)Nc1ccc([N+](=O)[O-])cc1	·	·	·	-0.8	-1
Nc1c(S(=O)(=O)c2cccs2)c2nc3ccccc3nc2n1Cc1ccc2c(c1)OCO2	-2%	-50	-14	9.3	6
CNc1nc(Nc2ccc(C)c(Cl)c2)c2cnn(C)c2n1	·	·	·	0.2	14
COc1cccc(/C=N/Nc2nc(N3CCCC3)nc(N3CCCC3)n2)c1O	35%	-69	-10	0.9	·
NS(=O)(=O)c1ccc(CNC(=O)C2CCCCC2)cc1	-8%	-27	-1	0.5	0
COc1cccc(CNc2ccc(C)c(Cl)c2)c1	3%	·	3	12	52
COc1ccc(-c2nc3ccc(C(=O)NCCCN4CCOCC4)cc3nc2-c2ccc(OC)cc2)cc1	·	·	·	-70	2
CCN(c1ccc(C)cc1)S(=O)(=O)c1nnc(NC(=O)c2ccco2)s1	·	·	·	-1.3	18
COc1ccc(N2CCN(CC(=O)NC(C)c3ccccc3)CC2)cc1 (stereo not drawn)	·	·	·	0.0	-5
COC(=O)c1ccc(CSc2nncn2C)cc1	-3%	-32	1	-0.7	-2
C=CCn1c(C)cc(-c2csc(NCC)n2)c1C	5%	·	15	19	6
COCc1ccc(C(=O)N2CCCC(C(=O)c3ccc(SC)cc3)C2)o1 (stereo not drawn)	·	·	·	-0.4	0
Cc1cc(OCC(=O)N(C)c2c(N)n(Cc3ccccc3)c(=O)[nH]c2=O)c(C(C)C)cc1Cl	·	·	·	-1.7	4
CCOC(=O)Cc1csc(NC(=O)c2ccc([N+](=O)[O-])cc2[N+](=O)[O-])n1	·	·	·	-0.2	-3
O=C(Cn1ncc2c([nH]c3ccccc32)c1=O)N1CCCCC1	·	·	·	-1.6	1
COc1cccc(C(=O)NCCNC(=O)c2cnccn2)c1	·	·	·	-2.4	2
CCNC(=O)COC(=O)c1csc2c1CCCC2	3%	-14	3	1.3	8
Nc1nc(SCC(=O)c2ccc(F)cc2)n[nH]1	5%	·	23	-4.7	-7
Cc1cc(C)c(S(=O)(=O)n2c([N+](=O)[O-])cnc2C)cc1C	7%	-17	-16	-1.1	12

Already shown: four of the compounds above.
SMILES	Mtb H37Rv	YopH PTP inh	Arbovirus anti	RecA splice inh	Mtb betalactam	others
COc1cccc(C(=O)NCCNC(=O)c2cnccn2)c1	·	·	·	-2.4	2
CCNC(=O)COC(=O)c1csc2c1CCCC2	3%	-14	3	1.3	8
Nc1nc(SCC(=O)c2ccc(F)cc2)n[nH]1	5%	·	23	-4.7	-7
Cc1cc(C)c(S(=O)(=O)n2c([N+](=O)[O-])cnc2C)cc1C	7%	-17	-16	-1.1	12

(continued)
SMILES	Mtb H37Rv	YopH PTP inh	Arbovirus anti	RecA splice inh	Mtb betalactam	others
CCOc1ccc(NC(=O)c2ccc(OC)cc2)cc1	0%	-19	2	-1.0	-3
CC1=C(C(=O)OC2CCCCC2)C(c2ccccc2)NC(=O)N1 (stereo not drawn)	·	·	·	3.4	-8
COC(=O)c1ccc(NC(=O)CCN2CCN(c3ccccc3)CC2)cc1	-16%	-16	6	-1.7	2
CCOC(=O)c1c(NC(=O)C2c3ccccc3Oc3ccccc32)sc(C(=O)N(CC)CC)c1C	15%	-16	-2	3.0	-2
COC(=O)C(C)N(C(=O)c1ccc(Cl)cc1)c1c(C)cccc1C (stereo not drawn)	6%	-5	13	4.9	-3
CC(=O)c1ccc(N2CCN(c3ncccn3)CC2)cc1	·	·	·	0.3	-8
COc1cc(Cc2cnc(N)nc2N)cc(OC)c1OC	1%&-4%	-26&-23	-4&-5	-0.2&-1.3	5&-1
CC(C)(C)CC(=O)Nc1nnc(SCC(=O)Nc2ccccc2F)s1	-5%	·	11	·	3
O=C(c1cnccn1)N1CCCC(N2CCN(c3cccc(Cl)c3)CC2)C1 (stereo not drawn)	·	·	·	0.9	-17
C/C(CC(=O)NC(C)(C)C)=N\NC(N)=S	-7%	·	0	-2.8	-12
C=CCSc1nnc(NC(=O)CSc2nc(CCC)cc(=O)[nH]2)s1	-5%	-32	13	1.1	-4
Cc1nn(-c2ccccc2Cl)c2sc(C(=O)Nc3nnc(C4CC4)s3)cc12	-2%	-13	-12	0.6	-3
N#CC(c1ccc(Cl)cc1)N1CCOCC1 (stereo not drawn)	-4%	·	11	·	-1
O=C(CC12CC3CC(CC(C3)C1)C2)N1CCN(S(=O)(=O)c2cccs2)CC1	4%	-11	-7	1.2	-4
O=C1Nc2ccccc2Nc2ccc([N+](=O)[O-])cc21	·	·	·	2.6	?
O=C(CN1C(=O)COc2ccccc21)NCCN1CCOCC1	·	·	·	6.4	-9
Cn1c(Cc2ccccc2)nnc1SCc1nc2ccccc2c(=O)[nH]1	-6%	·	18	-4.7	-4
Cc1nnc(NC(=O)CSc2ccccn2)s1	1%	-35	7	0.1	-6
Cc1cc(C)cc(N2C(=O)NC(=O)/C(=C\c3cccn3-c3ccccc3)C2=O)c1	2%	-23	-22	0.5	0
COC(=O)C1=C(C)N(Cc2ccc(C)cc2)C(=O)/C1=C\c1ccc(O)c(OC)c1	-5%	-22	-30	5.0	-1
O=C(O)Cc1n[nH]c(=O)c2ccccc12	0%	-42	4	1.9	-1
Cc1c(Cl)cccc1NC(=S)NCCCN(C)C	4%	-42	8	0.0	-3
O=C1C2C3c4ccccc4C(Br)(c4ccccc43)C2C(=O)N1c1ccccc1O (stereo not drawn)	-2%	-19	-16	-3.0	-3
Cc1ccc(OCC(=O)N/N=C\c2c(C)[nH]n(-c3ccccc3)c2=O)c([N+](=O)[O-])c1	8%	-19	-9	·	55
O=C(Nc1ccc(S(=O)(=O)Nc2ncccn2)cc1)c1ccc(N2CCCC2=O)cc1	-3%	·	·	-1.5	0
CCCCNC(=O)Nc1cc(C(=O)OC)ccc1Cl	1%	-21	-6	2.3	4
CCOc1ccccc1-n1cnc(C#N)c1N	12%	·	2	-1.0	1
CC(C)(C)NCCCOc1ccc(Cl)cc1C(C)(C)C	2%	-16	-42	-0.6	·
CCOC(=O)C(C)Sc1nc2c([nH]c3ccccc32)c(=O)n1C (stereo not drawn)	-4%	-12	-7	-0.5	-1
NC(=O)[C@H]1CC2(CC(c3cccc(NC(=O)COc4ccc(Cl)cc4)c3)=NO2)CN1C(=O)C(c1ccccc1)c1ccccc1 (stereo partly drawn)	6%	·	·	16	59
N#C/C(=C\c1ccccc1Cl)C(=O)NC(=O)Oc1ccccc1	-7%	-31	-2	0.9	12
CCOc1ccc(S(=O)(=O)NCCC(=O)NC2CCN(Cc3ccccc3)CC2)cc1	·	·	·	-1.6	7
Cn1c(O)c(N=Nc2ccccc2)c2ccccc21	·	·	·	5.4	7
CCOc1ccccc1NC(=O)CSc1nnc(CNC(=O)COc2ccc(Cl)cc2)o1	3%	4	8	-1.5	33
CC(C)(C)OC(=O)NN=C(c1ccc(O)cc1)c1ccc(O)cc1	·	·	·	-0.4	-5
COc1cccc(-n2ccnc2SCC(=O)Nc2cc(C)on2)c1	-4%	·	-2	-0.8	-3
CCOc1ccc(CNc2cccc(SC)c2)cc1	20%	·	-10	1.3	-6
CCN(CC)C(=O)/C=C/c1ccc(OC)c(S(=O)(=O)N2CCCCC2)c1	-7%	·	-12	1.4	-4
CCOC(=O)c1c[nH]c2c(C(F)(F)F)cccc2c1=O	-4%	·	1	0.0	2
Cc1cccc(-n2c(=O)[nH]c3c(C(N)=O)nc(-c4ccccc4Cl)nc32)c1	·	-26	-17	0.6	0	Arbovirus anti repeat=-11
CC1=CCC2COC(c3ccc[n+](Cc4ccccc4)c3)C1C2 (stereo not drawn)	7%	-45	-7	6.7	-2

Two records picked at random from those above, as already listed:
SMILES	Mtb H37Rv	YopH PTP inh	Arbovirus anti	RecA splice inh	Mtb betalactam	others
Cc1cccc(-n2c(=O)[nH]c3c(C(N)=O)nc(-c4ccccc4Cl)nc32)c1	·	-26	-17	0.6	0	Arbovirus anti repeat=-11
CCOC(=O)c1c[nH]c2c(C(F)(F)F)cccc2c1=O	-4%	·	1	0.0	2
